MLL AF4-AF9 inh – inhibitors of human MLL-AF4/AF9 interaction | inhibition, % at 10 µM | AlphaScreen, biotin-AF4 peptide binding to FLAG-AF9 | P42568 | AID 651704 | 0.47% of 350,000 active;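 active = every replicate reaching a set inhibition limit, whatever the replicate mean, cut at about 25% in these data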;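 also: 0% = plate neutral control median and 100% = total signal loss; the record names both 10 and 1 µM as test concentration; the first replicate is given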
Target sequence (P42568 whole entry, looked up): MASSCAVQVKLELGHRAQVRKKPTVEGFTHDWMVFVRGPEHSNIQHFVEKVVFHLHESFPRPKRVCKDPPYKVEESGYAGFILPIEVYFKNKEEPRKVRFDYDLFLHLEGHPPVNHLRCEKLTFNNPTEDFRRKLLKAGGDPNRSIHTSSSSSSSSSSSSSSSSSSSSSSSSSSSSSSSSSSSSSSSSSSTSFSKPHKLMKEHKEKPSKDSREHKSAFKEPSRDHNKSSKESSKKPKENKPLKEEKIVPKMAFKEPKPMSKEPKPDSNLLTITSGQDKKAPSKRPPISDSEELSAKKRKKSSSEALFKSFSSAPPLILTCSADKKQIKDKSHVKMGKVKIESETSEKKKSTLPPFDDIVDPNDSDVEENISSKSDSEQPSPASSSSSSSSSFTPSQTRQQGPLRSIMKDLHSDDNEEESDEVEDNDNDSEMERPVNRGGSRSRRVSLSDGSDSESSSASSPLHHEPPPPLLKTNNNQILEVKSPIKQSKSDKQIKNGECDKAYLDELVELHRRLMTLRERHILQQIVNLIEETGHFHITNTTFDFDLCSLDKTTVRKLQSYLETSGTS
Ecoli rRNA inh – selective bacterial rRNA inhibition in E. coli. E. coli WT GFP vs humanized-ribosome RFP mutants, fluorescence, 24 h; hits give low values; DMSO median 0, no signal -100. GFP signal change (wild-type ribosome), % (test concentration not listed). 1.6% of 350,000 active;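 active = significant combined selectivity score with lowered wild-type GFP, culture density cut under 30%, mutant RFP and density less affected; inactive = any of these conditions unmet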; also: one replicate is shown; some compounds called inactive have numbers as strong as hits
Ecoli rRNA inh OD600 – second read-out of Ecoli rRNA inh, no call of its own (marks repeat the call); OD600 change, %; measured here: OD600 growth;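 optical density of the mix in the first replicate; 0 = DMSO median and -100 = no signal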
Ecoli rRNA inh RFP – second read-out of Ecoli rRNA inh, no call of its own (marks repeat the call); RFP signal change, %; measured here: RFP humanized mutant strains;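 first replicate; 0 = DMSO median and -100 = no signal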
Starred values were filed as active, the others as inactive.

Under each structure – MLL AF4-AF9 inh, Ecoli rRNA inh, Ecoli rRNA inh OD600, Ecoli rRNA inh RFP
CO[C@@H]1CN(C)C(=O)c2cc(NC(=O)c3ccc(F)cc3)ccc2OC[C@H](C)N(C)C[C@@H]1C
    -1.2, -1, -3, 0.4
CC1ON=C(c2ccc(F)cc2)NC1=O (configuration not stated)
    -1.4, 9, 23, 8.7
CC(C)CC#Cc1ccc2c(c1)O[C@H](CN(C)C(=O)c1cccnc1)[C@@H](C)CN([C@H](C)CO)S2(=O)=O
    -0.5, -3, -3, 0.5
O=C(CC1CC1)N1CC(=O)N2[C@H](C1)[C@@H](c1ccc(C#Cc3cccc(F)c3)cc1)[C@@H]2CO
    -5.6, -52, -75, -14
COc1ccc(-c2ccc3n(c2=O)C[C@@H]2[C@@H](CO)[C@H](C(=O)NCCN4CCCC4)N(C)[C@H]32)cc1
    -3.1, 1, 8, -2.5
C[C@H](CO)N1C[C@H](C)[C@@H](CN(C)C(=O)Nc2ccc(C(F)(F)F)cc2)Oc2ccc(NC(=O)Cc3ccccc3)cc2CC1=O
    1.5, -5, -3, -1.4
CCCNC(=O)c1cc(C2CCCCN2C(=O)OC)on1 (configuration not stated)
    -7.1, 8, 11, 0.3
O=C(NCC1CC1)[C@@H]1[C@@H](CO)[C@@H]2Cn3c(ccc(-c4cccnc4)c3=O)[C@H]1N2C(=O)C1CCCC1
    0.3, 3, -9, -4.4
C[C@@H]1CN([C@H](C)CO)C(=O)c2cccc(NC(=O)Nc3ccc(C(F)(F)F)cc3)c2O[C@@H]1CN(C)S(=O)(=O)c1ccc(Cl)cc1
    -1.3, -5, -7, 2.0
CCCC(O)C#Cc1cnc2c(c1)C(=O)N([C@H](C)CO)C[C@H](C)[C@H](CN(C)C(=O)Nc1ccc(F)cc1)O2 (some centres not stated)
    -2.2, -2, 14, 1.2
CCCN1[C@@H]2c3ccc(-c4ccccc4)c(=O)n3C[C@H]1[C@H](CO)[C@H]2C(=O)NCCc1cn(C)cn1
    0.8, 2, 3, -0.8
CCCNC(=O)N1[C@H](CO)[C@H](c2ccccc2)[C@@H]1CNC(=O)c1ccccc1
    1.4, -4, -8, -1.3
CO[C@@H]1CC[C@@H]2CCN(C)C(=O)CC3(CCCCC3)CN(C)C(=O)c3cc(C#N)ccc3OC[C@H]1O2
    -1.2, -5, -7, -3.1
N#Cc1ccc(-c2ccc3c(c2)[C@H]2[C@H](CCN2Cc2ccc4c(c2)OCO4)[C@@H](CO)N3)cc1
    -0.1, 10, -36, 22
C[C@H](CO)N1C[C@H](C)[C@@H](CN(C)Cc2ccc(-c3ccccc3)cc2)Oc2ccc(NC(=O)Nc3ccc(C(F)(F)F)cc3)cc2C1=O
    -0.8, 9, 6, -3.2
CNC(=O)C[C@H]1CC[C@H]2[C@H](COc3ccc(NC(=O)Nc4ccccc4F)cc3C(=O)N2C)O1
    -1.7, -4, 1, 1.1
C[C@H](CO)N1C[C@H](C)[C@@H](CN(C)Cc2cccc(C(=O)O)c2)Oc2ncc(-c3ccccc3F)cc2C1=O
    -5.0, 2, 1, -2.5
CC(=O)N1[C@@H]2c3cccc(=O)n3C[C@@H]2[C@@H](CO)[C@@H]1C(=O)NCc1ccccc1F
    0.6, 2, 4, -1.5
COc1ccc2c3c([nH]c2c1)[C@@H](CO)N(Cc1ccncc1)CC31CCN(C(=O)Cc2ccncc2)CC1
    -0.2, 3, 6, 1.3
O=C(C[C@@H]1CC[C@H]2[C@@H](COC[C@H](O)CN2C(=O)Nc2ccc(C(F)(F)F)cc2)O1)NC1Cc2ccccc2C1
    -3.5, -35, -53, -6.5
O=C(N[C@@H]1CC[C@H](CCNS(=O)(=O)c2ccccc2Cl)O[C@H]1CO)c1ccccc1
    -2.0, 2, 2, -0.4
O=C(NC[C@@H]1[C@H](c2ccccc2)[C@@H](CO)N1C(=O)Cc1cccnc1)C1CC1
    0.8, 2, 20, -1.3
O=C(C[C@H]1C=C[C@H](NC(=O)Nc2ccccc2F)[C@H](CO)O1)NCc1ccc(Cl)cc1
    -1.3, 1, 6, 0.3
Cc1noc(C)c1NC(=O)Nc1ccc2c(c1)CC(=O)N([C@H](C)CO)C[C@H](C)[C@@H](CN(C)Cc1ccc(Cl)c(Cl)c1)O2
    4.9, -1, -19, 9.2
O=C(c1cnccn1)N1CC(=O)N2[C@H](CO)[C@@H](c3ccc(C#CCc4ccccc4)cc3)[C@@H]2C1
    0.8, -6, -8, -1.4
O=C([C@@H]1[C@@H](CO)[C@@H]2Cn3c(ccc(-c4ccccc4)c3=O)[C@@H]2N1Cc1cocn1)N1CCCCC1
    -4.2, 1, 0, 2.0
COCC#Cc1ccc2c(c1)O[C@H](CN(C)C(=O)CC1CC1)[C@H](C)CN([C@@H](C)CO)S2(=O)=O
    -3.5, 3, 16, -1.2
O=C(NCC[C@@H]1CC[C@H](NC(=O)C2CCCCC2)[C@H](CO)O1)c1ccc(F)cc1
    -1.4, 1, 1, -3.1
C[C@@H]1CN([C@@H](C)CO)C(=O)c2cc(NC(=O)C3CCCCC3)ccc2O[C@@H](C)CCCCO[C@@H]1CN(C)C(=O)c1ccccc1
    -2.0, 0, -2, -0.1
CN(C)CC(=O)N[C@H]1CC[C@@H](CCNC(=O)C2CC2)O[C@@H]1CO
    -3.6, 1, -3, 0.8

Shown with the structure last: part of the list above
MLL AF4-AF9 inh | Ecoli rRNA inh | Ecoli rRNA inh OD600 | Ecoli rRNA inh RFP | structure
0.8 | -6 | -8 | -1.4 | O=C(c1cnccn1)N1CC(=O)N2[C@H](CO)[C@@H](c3ccc(C#CCc4ccccc4)cc3)[C@@H]2C1
-2.0 | 2 | 2 | -0.4 | O=C(N[C@@H]1CC[C@H](CCNS(=O)(=O)c2ccccc2Cl)O[C@H]1CO)c1ccccc1
-4.2 | 1 | 0 | 2.0 | O=C([C@@H]1[C@@H](CO)[C@@H]2Cn3c(ccc(-c4ccccc4)c3=O)[C@@H]2N1Cc1cocn1)N1CCCCC1
-5.0 | 2 | 1 | -2.5 | C[C@H](CO)N1C[C@H](C)[C@@H](CN(C)Cc2cccc(C(=O)O)c2)Oc2ncc(-c3ccccc3F)cc2C1=O
0.6 | 2 | 4 | -1.5 | CC(=O)N1[C@@H]2c3cccc(=O)n3C[C@@H]2[C@@H](CO)[C@@H]1C(=O)NCc1ccccc1F
-3.6 | 1 | -3 | 0.8 | CN(C)CC(=O)N[C@H]1CC[C@@H](CCNC(=O)C2CC2)O[C@@H]1CO

(list continues)
| SMILES | MLL AF4-AF9 inh | Ecoli rRNA inh | Ecoli rRNA inh OD600 | Ecoli rRNA inh RFP |
| --- | --- | --- | --- | --- |
| COCC#Cc1ccc([C@H]2[C@H](CO)N3C(=O)CN(C(=O)c4cccnc4)C[C@@H]23)cc1 | -4.8 | 2 | -1 | -4.8 |
| CO[C@@H]1CN(C)C(=O)c2cc(NC(C)=O)ccc2OC[C@H](C)N(Cc2cc(F)ccc2F)C[C@H]1C | 0.7 | -6 | -11 | 0.4 |
| CC(C)NC(=O)N1C[C@H]2[C@@H](c3ccccc31)[C@@H](CO)N2C(=O)c1ccccn1 | -1.0 | 5 | -3 | -1.9 |
| CC(=O)N(C)C[C@H]1Oc2ncc(-c3cccc(F)c3)cc2C(=O)N([C@@H](C)CO)C[C@H]1C | -1.0 | -1 | 1 | 0.0 |
| C[C@H]1CN([C@@H](C)CO)C(=O)Cc2cc(NC(=O)CCN3CCOCC3)ccc2O[C@@H]1CN(C)S(=O)(=O)c1ccc(Cl)cc1 | 3.0 | 0 | 1 | -1.0 |
| C[C@@H]1CN([C@H](C)CO)S(=O)(=O)c2ccc(C3=CCCCC3)cc2O[C@H]1CN(C)C(=O)Nc1ccc2c(c1)OCO2 | 10 | -4 | -14 | 7.9 |
| Cc1ccc(S(=O)(=O)N(C)C[C@@H]2Oc3ccc(N(C)C)cc3CC(=O)N([C@H](C)CO)C[C@H]2C)cc1 | -1.3 | 1 | 1 | 0.5 |
| Cc1ccc([C@H]2C[C@H](n3cc(COC(=O)c4ccccc4)nn3)[C@@H](O)CN2C(=O)c2cccs2)cc1 | -1.6 | -2 | 0 | 0.1 |
| O=C(Cc1cccnc1)N[C@H]1CC[C@H](CCn2cc(Cc3ccccc3)nn2)O[C@H]1CO | -2.0 | 0 | -11 | -3.0 |
| CCc1sc(N2[C@@H](C#N)[C@@H](c3ccccc3-c3ccccc3)[C@@H]2CO)nc1C | 0.2 | -1 | -17 | 36 |
| C[C@@H]1CCCCO[C@@H](CN(C)Cc2ccncc2)[C@@H](C)CN([C@H](C)CO)C(=O)c2cc(NC(=O)CCCCCC(=O)Nc3ccccc3N)ccc2O1 | 9.0 | 1 | 5 | 0.0 |
| C[C@H]1CN([C@@H](C)CO)C(=O)c2cc(C#CCN(C)C)cnc2O[C@@H]1CN(C)C(=O)Nc1ccccc1F | 1.1 | 1 | 8 | -1.9 |
| CO[C@H]1CN(C)C(=O)c2ccc(NS(C)(=O)=O)cc2OC[C@@H](C)N(CC2CCOCC2)C[C@H]1C | -1.0 | 5 | 2 | -1.0 |
| C[C@@H]1CCCCO[C@H](CN(C)C(=O)C2CCCCC2)[C@H](C)CN([C@@H](C)CO)C(=O)c2cc(NS(=O)(=O)c3ccccc3)ccc2O1 | 3.2 | -1 | -4 | 0.7 |
| CC(C)NC(=O)N1[C@@H]2CN(C(=O)Nc3ccccc3)c3ccccc3[C@@H]2[C@@H]1CO | 1.1 | 2 | 6 | -0.7 |
| Cc1cc(Cl)ccc1C(O)c1ncc(-c2cccc3ccccc23)[nH]1 (configuration not stated) | 2.6 | -26 | -55 | 4.3 |
| CCN1[C@H](C(=O)NCc2ccccc2)[C@@H](CO)[C@@H]2Cn3c(ccc(-c4ccccc4OC)c3=O)[C@@H]21 | 2.2 | -8 | 3 | -1.6 |
| COc1ccc2c3c(n(C)c2c1)[C@@H](CO)N(Cc1ccccc1OC)CC31CN(CC2CC2)C1 | 8.9 | 5 | -1 | 0.3 |
| C[C@@H]1CN([C@@H](C)CO)S(=O)(=O)c2ccc(-c3cccc(C(=O)N(C)C)c3)cc2O[C@H]1CN(C)C(=O)Nc1ccccc1 | -11 | -8 | -3 | -2.8 |
| CO[C@H]1CN(C)C(=O)c2ccc(NS(=O)(=O)c3cn(C)cn3)cc2OC[C@H](C)N(CC2CC2)C[C@@H]1C | -0.8 | 2 | 10 | -1.9 |
| CCN(C[C@@H]1N[C@@H](CO)[C@H]1c1ccc(-c2ccc(F)cc2)cc1)C(=O)CN(C)C | 13 | 2 | 7 | 1.7 |
| CC(=O)N(C)C[C@H]1Oc2cc(C3=CCCC3)ccc2S(=O)(=O)N([C@@H](C)CO)C[C@@H]1C | -0.5 | -1 | -16 | -0.9 |
| O=C(C[C@@H]1CC[C@H]2[C@@H](COC[C@H](O)CN2S(=O)(=O)c2ccccc2)O1)NCC1CCCCC1 | 39* | -6 | 10 | 2.7 |
| C[C@H](CO)N1C[C@H](C)[C@H](CN(C)C(=O)C2CC2)Oc2cc(C3=CCCCC3)ccc2S1(=O)=O | 1.6 | -4 | 1 | 2.0 |
| CCS(=O)(=O)NCC[C@@H]1CC[C@@H](NC(=O)Nc2ccccc2)[C@H](CO)O1 | -2.9 | 3 | 8 | 0.3 |
| CC(=O)N1CC2(C1)[C@H](c1ccc(-c3ccccc3C)cc1)[C@@H](CO)N2C(=O)CC1CC1 | 1.1 | -2 | -8 | 1.4 |
| Cc1ccc([C@H]2C[C@@H](n3cc(C4CC4)nn3)[C@H](O)CN2CC2CCCCC2)cc1 | 2.7 | 6 | -49 | 34 |
| C[C@H](CO)N1C[C@H](C)[C@@H](CN(C)C)Oc2cc(-c3ccccc3)ccc2S1(=O)=O | -0.8 | -3 | -7 | -1.5 |
| CCCNC(=O)N1[C@H](CO)[C@H](c2ccccc2-c2ccccc2)[C@@H]1C#N | -1.2 | 6 | -7 | -6.0 |
| C[C@H](CO)N1C[C@H](C)[C@@H](CN(C)C(=O)Nc2ccc(C(F)(F)F)cc2)OCCCC[C@H](C)Oc2ccc(NS(C)(=O)=O)cc2C1=O | -1.4 | -5 | -9 | 1.0 |
| O=C(Nc1ccccc1F)N1C[C@@H]2[C@H](c3ccccc31)[C@H](CO)N2C(=O)Cc1ccccc1 | 0.7 | -43 | -38 | -2.2 |
| O=C(C[C@H]1CC[C@@H](NC(=O)c2cccnc2)[C@@H](CO)O1)NCCN1CCCCC1 | -0.5 | -3 | 3 | 0.5 |
| CCC(=O)N1CC2(CCN(Cc3cccnc3)CC2)c2c(n(C)c3cc(OC)ccc23)[C@H]1CO | 3.0 | 2 | 10 | -1.8 |
| CNC[C@@H]1OCCCC[C@@H](C)Oc2ccc(NC(=O)NC(C)C)cc2C(=O)N([C@H](C)CO)C[C@H]1C | -2.9 | 6 | -1 | -0.7 |
| CCCNC(=O)C[C@@H]1C[C@@H]2c3cc(NC(=O)Nc4ccc(OC)cc4)ccc3O[C@@H]2[C@H](CO)O1 | 3.5 | -3 | 2 | 2.6 |
| CC(O)(c1cccnc1)c1nc(/C=C/c2ccccc2)cs1 (configuration not stated) | 7.7 | -6 | -28 | -5.6 |
| COc1ccccc1CNC(=O)C[C@H]1C[C@@H]2c3cc(NC(=O)Nc4ccc(C(F)(F)F)cc4)ccc3O[C@@H]2[C@H](CO)O1 | 2.1 | -3 | -11 | -2.2 |
| CCCc1nc2cc(C)c(Br)c(C)n2c1Cc1ccc(OC)cc1C | -0.6 | -1 | 7 | 0.1 |
| O=S(=O)(N[C@H]1CC[C@H](CCn2cc(-c3ccccn3)nn2)O[C@@H]1CO)c1cccc(F)c1 | 0.9 | -1 | 0 | -3.2 |
| O=S(=O)(c1cccs1)N1CCCCN2[C@H](CO)[C@@H](c3ccc(/C=C/c4ccccc4)cc3)[C@@H]2C1 | 0.9 | 3 | 26 | 0.8 |

Only part of the results is shown. The share of hits here may be higher or lower than overall.
